Screening results: PubChem, Vanderbilt University
GIRK2 activ: GIRK2 channel activation; P48051; HEK293-GIRK2 thallium flux, Thallos fluorescence; calls only for hits at 25 µM; 63,000 compounds, 0.05% hits;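 active means among the strongest 0.2% of first-round signals and kept after retests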;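 further: first round at about 10 µM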
Target sequence (P48051 whole entry, looked up): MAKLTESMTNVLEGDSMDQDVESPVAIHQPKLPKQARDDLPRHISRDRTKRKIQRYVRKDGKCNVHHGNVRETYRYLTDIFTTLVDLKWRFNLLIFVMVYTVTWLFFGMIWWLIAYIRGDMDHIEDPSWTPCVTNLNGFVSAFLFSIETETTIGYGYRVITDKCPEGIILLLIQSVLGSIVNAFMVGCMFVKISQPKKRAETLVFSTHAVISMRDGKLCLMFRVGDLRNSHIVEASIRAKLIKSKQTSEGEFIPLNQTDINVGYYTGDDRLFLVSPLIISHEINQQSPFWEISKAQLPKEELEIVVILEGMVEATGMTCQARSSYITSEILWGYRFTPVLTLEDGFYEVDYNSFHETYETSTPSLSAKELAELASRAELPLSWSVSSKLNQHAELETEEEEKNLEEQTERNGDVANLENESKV
Calls only. A portion of the library; the hit share may differ from the screen's.

What do the screens show for `O=C(CSc1nccn1-c1ccc(C(=O)NCc2ccco2)cc1)Nc1ccccc1F`?
GIRK2 activ: inactive

How did Cc1cc(C)c(NC(=O)Cn2nc3ccc(SCc4ccc(Cl)cc4)nn3c2=O)c(C)c1 do in these assays?
GIRK2 activ: inactive

What do the screens show for `Cc1ccc(NC(=O)Cn2nc3n(c(=O)c2=O)CCN3c2ccccc2)c(C)c1`?
GIRK2 activ: inactive

Results for C=CCn1c(=O)c2ccc(C(=O)NCC(C)C)cc2n2c(=O)n(CC(=O)Nc3ccccc3C)nc12 ?
GIRK2 activ: inactive

Results for O=S(=O)(c1ccccc1)N1CCC2(CC1)OCCS2 ?
GIRK2 activ: inactive

What do the screens show for `COc1cccc2cc(C(=O)NCCN3CCN(S(C)(=O)=O)CC3)c(=O)oc12`?
GIRK2 activ: inactive

Results for CN(CC(=O)Nc1ccc(-n2cnnn2)cc1)c1nc2c(F)cccc2s1 ?
GIRK2 activ: inactive

What do the screens show for `O=C(Cn1nc2c(-c3nc(-c4ccccc4)no3)cccn2c1=O)N1CCN(c2ccccc2)CC1`?
GIRK2 activ: inactive

How did CCCCCn1c(C2CC(=O)N(c3cccc(OC)c3)C2)nc2ccccc21 (centres undefined) do in these assays?
GIRK2 activ: inactive

Results for Cc1ccc(C(=O)Nc2ccc(C)cc2-c2nc3ccccc3[nH]c2=O)cc1 ?
GIRK2 activ: inactive

What do the screens show for `Cc1cc(C)c(S(=O)(=O)Nc2ccccc2C)c(C)c1`?
GIRK2 activ: inactive

Results for Cc1noc(C2CCCN2C(=O)c2cc(C3CC3)on2)n1 (centres undefined) ?
GIRK2 activ: inactive

How did O=C(NCC#CCN1CCc2ccccc2C1)c1cc(-c2cccs2)[nH]n1 do in these assays?
GIRK2 activ: inactive

How did O=C(c1cccs1)N1CC(Oc2nc3c(Cl)cccc3s2)C1 do in these assays?
GIRK2 activ: inactive

Results for COCCCn1c(C(=O)NCCc2ccccc2)cc2c(=O)n(C)c(=O)n(C)c21 ?
GIRK2 activ: inactive

How did CC1Oc2ccccc2OC1C(=O)NCc1ncc(-c2ccccc2)[nH]1 (centres undefined) do in these assays?
GIRK2 activ: inactive

How did CCOCCn1c(=O)c2c(nc3n2CC(C)CN3c2ccc(C)c(C)c2)n(C)c1=O (centres undefined) do in these assays?
GIRK2 activ: inactive

Results for Cc1cccc2sc(N3CCN(c4ccccc4O)CC3)nc12 ?
GIRK2 activ: inactive

How did CC(C)OC(=O)COc1ccc2c(c1)O/C(=C\c1ccc3c(c1)OCO3)C2=O do in these assays?
GIRK2 activ: inactive

Results for COc1cc(OC)c(NC(=O)COc2cc(C)nc(N3CCCCCC3)n2)cc1Cl ?
GIRK2 activ: inactive

Results for Cc1ccc(S(=O)(=O)N2CCN(C(=O)C(C)Cn3cncn3)CC2)cc1 (centres undefined) ?
GIRK2 activ: inactive

What do the screens show for `O=C(Cc1ccc(NC(=O)Nc2ccccc2C(F)(F)F)cc1)NC1CC1`?
GIRK2 activ: inactive

What do the screens show for `O=C(c1c[nH]c2ccccc12)N1CC(c2nc(-c3cnccn3)no2)C1`?
GIRK2 activ: inactive

What do the screens show for `Cc1nc2cc(NC(=O)C3CCN(S(=O)(=O)c4ccc(Cl)cc4)CC3)ccc2s1`?
GIRK2 activ: inactive

What do the screens show for `CCCCNC(=O)c1ccc(-n2ccnc2SCC(=O)Nc2ccccc2Br)cc1`?
GIRK2 activ: inactive

What do the screens show for `COc1ccc(NC(=O)c2c3c(nn2C2CCS(=O)(=O)C2)CCC3)cc1Cl` (centres undefined)?
GIRK2 activ: inactive

Results for Cc1nc(N2CCCC2)nc(C)c1NC(=O)c1ccccc1 ?
GIRK2 activ: inactive

How did O=C(NCc1ccccc1Cl)C(=O)NCC1(c2cccs2)CCOCC1 do in these assays?
GIRK2 activ: inactive

How did O=C(CCn1c(=O)c2ccccc2n(Cc2ccccc2Cl)c1=O)N1CCc2ccccc2C1 do in these assays?
GIRK2 activ: inactive

What do the screens show for `Cn1cccc1CN(Cc1cccs1)C(=O)C1CCN(S(C)(=O)=O)CC1`?
GIRK2 activ: inactive

Results for Cc1ccc(Cl)cc1NC(=O)c1n[nH]nc1Nc1ccccc1 ?
GIRK2 activ: inactive

What do the screens show for `O=C(Nc1ccc2c(c1)CCCN2C(=O)c1ccccc1)Nc1cccs1`?
GIRK2 activ: inactive

How did Cn1cc(CC(=O)N2CC(c3nc(-c4ccc[nH]c4=O)no3)C2)c2ccccc21 do in these assays?
GIRK2 activ: inactive

What do the screens show for `CCOc1ccccc1NC(=O)CSc1nccn1-c1ccc(C(=O)NCc2cccs2)cc1`?
GIRK2 activ: inactive

Results for CCc1ccccc1NC(=O)CSc1nccc(N2CCN(c3ccc(F)cc3)CC2)n1 ?
GIRK2 activ: inactive

How did COc1cc(/C=C/C(=O)Nc2ccccc2-c2nnc(SC)o2)cc(OC)c1OC do in these assays?
GIRK2 activ: inactive

How did CS(=O)(=O)N1CCN(C(=O)CCc2cccc(Oc3ccc(F)cc3)c2)CC1 do in these assays?
GIRK2 activ: inactive

Results for O=C(NCc1cccs1)N1CCN(c2nc3c(C(F)(F)F)cccc3s2)CC1 ?
GIRK2 activ: inactive

How did COc1ccc(-c2c(C)oc3cc(OCCN4CC(C)OC(C)C4)ccc3c2=O)cc1 (centres undefined) do in these assays?
GIRK2 activ: inactive

What do the screens show for `Cc1nn(C(C)(C)C)c(OC(=O)C2CCCCC2)c1Sc1ccccc1[N+](=O)[O-]`?
GIRK2 activ: inactive

How did O=C(Cc1noc2ccccc12)OC1CN(c2nc3c(F)cc(F)cc3s2)C1 do in these assays?
GIRK2 activ: inactive

Results for COc1ccccc1NC(=O)N1CCN(c2ccc(-c3ccc(C)cc3C)nn2)CC1 ?
GIRK2 activ: inactive

What do the screens show for `Cc1ccc(C(O)=C2C(=O)C(=O)N(c3nccs3)C2c2cccc(Cl)c2)cc1` (centres undefined)?
GIRK2 activ: inactive

What do the screens show for `CC1CN(CC(=O)Nc2c(F)cccc2F)CC(C)O1` (centres undefined)?
GIRK2 activ: inactive

What do the screens show for `COc1cccc(NC(=O)c2cn(C)nc2S(=O)(=O)N2CCN(c3ccc(Cl)cc3)CC2)c1`?
GIRK2 activ: inactive

How did c1ccc(CN2CCN(Cc3nc4ccccc4[nH]3)CC2)cc1 do in these assays?
GIRK2 activ: inactive

How did CCOc1cccc2cc(C(=O)Nc3ccc(C)c(C)c3)c(=O)oc12 do in these assays?
GIRK2 activ: inactive

Results for COC(=O)c1cc(OC)c(OC)cc1NC(=O)c1ccc(Cl)nc1Cl ?
GIRK2 activ: inactive

What do the screens show for `CCOc1ccc(CN2C(=O)C3(SC(NC(C)=O)=NN3C(C)=O)c3cccc(C)c32)cc1` (centres undefined)?
GIRK2 activ: inactive

What do the screens show for `CCOC(=O)c1cn[nH]c1S(=O)(=O)N1CCN(C2CCCCC2)CC1`?
GIRK2 activ: inactive

How did Cc1ccc(NC(=O)CN2CCC(C(=O)NCc3nc(-c4ccccc4)no3)CC2)c(C)c1 do in these assays?
GIRK2 activ: inactive

Results for NS(=O)(=O)c1cc(C2(O)NC(=O)c3ccccc32)ccc1Cl (centres undefined) ?
GIRK2 activ: inactive

How did COc1cc(-c2nc(Cn3nnc(C(=O)Nc4cc(C)cc(C)c4)c3N)c(C)o2)cc(OC)c1OC do in these assays?
GIRK2 activ: inactive

How did CCSc1nnc(NC(=O)CN(C)c2nc3c(Cl)cccc3s2)s1 do in these assays?
GIRK2 activ: inactive

What do the screens show for `CS(=O)(=O)N1N=C(c2ccccc2)CC1c1cn(-c2ccccc2)nc1-c1ccccc1` (centres undefined)?
GIRK2 activ: inactive

Results for COc1ccc(OC)c(S(=O)(=O)NCC2(c3ccccc3)CCOCC2)c1 ?
GIRK2 activ: inactive

How did Cc1nc(C(=O)N2CCCC(c3nnc(-c4cccs4)o3)C2)cs1 (centres undefined) do in these assays?
GIRK2 activ: inactive

What do the screens show for `CCOC(=O)Cc1csc(NC(=O)C2CCCN(c3ccc(-c4ccccc4OC)nn3)C2)n1` (centres undefined)?
GIRK2 activ: inactive

What do the screens show for `O=C(NCCOc1ccc2nnc(-c3cccc(F)c3)n2n1)c1cc(=O)c2ccccc2o1`?
GIRK2 activ: inactive

How did COc1ccc(NC(=O)CCn2cnc3c([nH]c4ccccc43)c2=O)cc1Cl do in these assays?
GIRK2 activ: inactive

Fetched by structure from the list above, 7 records:
What do the screens show for `O=C(c1c[nH]c2ccccc12)N1CC(c2nc(-c3cnccn3)no2)C1`?
GIRK2 activ: inactive

What do the screens show for `O=C(CSc1nccn1-c1ccc(C(=O)NCc2ccco2)cc1)Nc1ccccc1F`?
GIRK2 activ: inactive

What do the screens show for `COc1cccc(NC(=O)c2cn(C)nc2S(=O)(=O)N2CCN(c3ccc(Cl)cc3)CC2)c1`?
GIRK2 activ: inactive

Results for Cc1nc(N2CCCC2)nc(C)c1NC(=O)c1ccccc1 ?
GIRK2 activ: inactive

How did CCOCCn1c(=O)c2c(nc3n2CC(C)CN3c2ccc(C)c(C)c2)n(C)c1=O (centres undefined) do in these assays?
GIRK2 activ: inactive

What do the screens show for `CCOc1ccc(CN2C(=O)C3(SC(NC(C)=O)=NN3C(C)=O)c3cccc(C)c32)cc1` (centres undefined)?
GIRK2 activ: inactive

What do the screens show for `O=C(Cn1nc2c(-c3nc(-c4ccccc4)no3)cccn2c1=O)N1CCN(c2ccccc2)CC1`?
GIRK2 activ: inactive

New compounds follow:
How did Cc1nc(C)c(-c2ccc(OCCNC(=O)c3c[nH]c(=O)n(-c4ccc(F)cc4)c3=O)nn2)s1 do in these assays?
GIRK2 activ: inactive

How did CC(=O)Nc1cccc(NC(=O)CSc2nnc(N3CCN(C)CC3)s2)c1 do in these assays?
GIRK2 activ: inactive

What do the screens show for `Cc1cc(=O)c2cc(C(=O)Nc3nc(-c4ccccc4)cs3)ccc2[nH]1`?
GIRK2 activ: inactive

How did COc1ccc(-c2cc3nc(C)cc(NCC4CCCO4)n3n2)cc1OC (centres undefined) do in these assays?
GIRK2 activ: inactive

Results for Cc1nnsc1C(=O)NCC1CCN(Cc2ccco2)CC1 ?
GIRK2 activ: inactive

How did COCCn1c(=O)c2c(nc3n(-c4ccc(F)cc4)c(C)c(C)n23)n(C)c1=O do in these assays?
GIRK2 activ: inactive

What do the screens show for `COCCOCC1CCN(C(=O)NCc2ccc(F)cc2)CC1`?
GIRK2 activ: inactive

How did COc1ccc(C(=O)NCC2CCN(C)CC2)cc1 do in these assays?
GIRK2 activ: inactive

Results for COc1ccc(C(F)(F)F)cc1NC(=O)CSc1ccncn1 ?
GIRK2 activ: inactive

What do the screens show for `O=S(=O)(c1ccc(Cl)c2ccccc12)N1CCCCCC1`?
GIRK2 activ: inactive

How did O=C(C1CCCO1)N1CCN(c2cc(N3CCCCC3)ncn2)CC1 (centres undefined) do in these assays?
GIRK2 activ: inactive

What do the screens show for `Cc1ccc(SCC2CSc3nc(=O)c4cn[nH]c4n32)cc1` (centres undefined)?
GIRK2 activ: inactive

What do the screens show for `COc1ccc(C(=O)Nc2ccc3c(c2)N(S(=O)(=O)c2ccc(C)cc2)CCC3)cc1`?
GIRK2 activ: inactive

Results for Cn1cc(-c2ccco2)nc1CCNC(=O)/C=C/c1cccs1 ?
GIRK2 activ: inactive

Results for Cc1cccc(NC(=O)CN2CCC(c3nnc(C(F)(F)F)o3)CC2)c1C ?
GIRK2 activ: inactive

Results for COCc1nn2c(c1-c1ccccc1)NC(=O)C2CC(=O)Nc1ccc2c(c1)OCCO2 (centres undefined) ?
GIRK2 activ: inactive

What do the screens show for `Cc1cc(C(=O)NCC(c2cccs2)S(=O)(=O)c2ccc(Cl)cc2)c(C)o1` (centres undefined)?
GIRK2 activ: inactive

How did COC(=O)c1ccc(C(=O)NCCC(O)C2CC2)cc1 (centres undefined) do in these assays?
GIRK2 activ: inactive

Results for CCCn1cc(C(=O)Nc2ccc(OCC)cc2)c(=O)c2ccc(C)nc21 ?
GIRK2 activ: inactive

What do the screens show for `CS(=O)(=O)Nc1ccc2c(c1)N(S(=O)(=O)c1ccc(F)cc1)CCC2`?
GIRK2 activ: inactive

What do the screens show for `CC(=O)Nc1ccc(S(=O)(=O)N2CCN(c3cc(Cl)ccc3C)CC2)cc1`?
GIRK2 activ: inactive

Results for COc1cc(NS(=O)(=O)c2ccccc2)ccc1N1CCCCC1=O ?
GIRK2 activ: inactive

How did Cc1nc2cc(NC(=O)CNS(=O)(=O)c3c(C)c(C)cc(C)c3C)ccc2s1 do in these assays?
GIRK2 activ: inactive

What do the screens show for `O=C(NCCn1ncccc1=O)c1csc(Nc2ncccn2)n1`?
GIRK2 activ: inactive

Results for Cc1cccc(Cn2c(C3CC(=O)N(c4ccccc4)C3)nc3ccccc32)c1 (centres undefined) ?
GIRK2 activ: inactive

What do the screens show for `COc1cc(Cl)c(C)cc1Nc1c(C(=O)N2CCCC2)cnc2nc(C)ccc12`?
GIRK2 activ: inactive

Results for COC(=O)c1ccc(NC(=O)Cn2cnc3c(c2=O)CCCC3)cc1 ?
GIRK2 activ: inactive

How did Cc1ccc(C)c(S(=O)(=O)N2CCN(Cc3nc4ccccc4n3C)CC2)c1 do in these assays?
GIRK2 activ: inactive

What do the screens show for `COC(=O)CN1CCN(c2nc3c(c(=O)[nH]c(=O)n3C)n2Cc2ccccc2F)CC1`?
GIRK2 activ: inactive

What do the screens show for `Cc1cc(NC(=O)CSc2nc3ncccc3c(=O)n2CC2CCCO2)n[nH]1` (centres undefined)?
GIRK2 activ: inactive

Brought forward from above: 4 compounds, followed by the next part.
Results for COC(=O)c1ccc(NC(=O)Cn2cnc3c(c2=O)CCCC3)cc1 ?
GIRK2 activ: inactive

How did Cc1ccc(C)c(S(=O)(=O)N2CCN(Cc3nc4ccccc4n3C)CC2)c1 do in these assays?
GIRK2 activ: inactive

What do the screens show for `COC(=O)CN1CCN(c2nc3c(c(=O)[nH]c(=O)n3C)n2Cc2ccccc2F)CC1`?
GIRK2 activ: inactive

What do the screens show for `Cc1cc(NC(=O)CSc2nc3ncccc3c(=O)n2CC2CCCO2)n[nH]1` (centres undefined)?
GIRK2 activ: inactive

Results for Cc1cc(N2CCN(c3ccccc3)CC2)n2nc(C)c(-c3ccccc3)c2n1 ?
GIRK2 activ: inactive

What do the screens show for `O=C(Nc1nc(CCC(=O)N2CCN(c3ncccn3)CC2)cs1)c1cccs1`?
GIRK2 activ: inactive

How did COC(=O)c1ccccc1NC(=O)C1Cc2ccc(Cl)cc2C(=O)O1 (centres undefined) do in these assays?
GIRK2 activ: inactive

What do the screens show for `O=C(NCc1ccc(F)cc1)c1cn(Cc2ccc(NC(=O)c3ccccc3F)cc2)cn1`?
GIRK2 activ: inactive
